From PubChem BioAssay
2A StopGo – lowers the luciferase signal of an FMDV 2A StopGo reporter. human cells with a luciferase reporter of 2A StopGo recoding; control for the full effect not named in the record. Potency, µM (series often up to 57.9 µM), without a hit: top-dose signal change, negative = less light. 410,000 tested, 1.2% active; active = well fitted falling curve with a large enough effect; inconclusive = small, poorly fitted or top-dose-only effect; inactive = no such curve, though single readings can be large or run the other way; tested in HEK293T cells; note: % is set by controls: 0 for no effect and ±100 for the full control effect; nearly all actives have a fitted effect of over 45% in size; luciferase light after 4 h
MARV entry inh – blocks Marburg virus binding to or entry into cells; Marburg virus pseudotyped entry inhibition, cell reporter; control for the full effect not named in the record; about a third of the inactives were read at about 46 µM; Potency, µM (top dose mostly 37.8 µM), for inactives: at the top dose activity change, negative = inhibition, most hits filed as inhibitors; 300,000 tested, 1.8% active; active = well fitted inhibition curve with a large enough effect; inconclusive = small, poorly fitted or top-dose-only effect, or effect the other way; inactive = flat fitted curve, though single readings scatter; tested in HEK293 cells; about a fifth of its hits are not listed in these tables; note: % is set by controls: 0 for no effect and ±100 for the full control effect; luciferase read-out
RE007 growth inh – less growth of the S. pombe RE007 Vpr strain; S. pombe RE007 Vpr strain, BacTiter-Glo ATP luminescence, 24 h; control for the full effect not named in the record; Potency, µM (highest dose often 92.2 µM), for the others: at the top dose activity change, negative = less growth; 360,000 tested, 0.21% active; AID 651644; active = well fitted falling curve with a large enough effect; inconclusive = small, poorly fitted or top-dose-only effect; inactive = no such curve, though single readings can be large or run the other way;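 note: % is set by controls: 0 for no effect and ±100 for the full control effect; nearly all actives have a fitted effect of over 50% in size; the assay follows cell death caused by Vpr and the record does not say whether a fall means rescue or toxicity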
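Fission yeast strain RE007, carrying one chromosomally integrated HIV-1 vpr copy, was seeded at OD 0.01 in PMG+AL medium with 23 nL pinned compound. After 24 h at 30 °C and 99% humidity, viability was read by BacTiter-Glo luminescence.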
Cruzain Triton – inhibitors of Trypanosoma cruzi cruzain with detergent; purified cruzain, Z-FR-AMC fluorescence, 0.01% Triton; Potency, µM, for inactives: max response, negative = inhibition, usual class: inhibitors; 200,000 tested, 0.43% active; active = well fitted curve in the direction sought with a large enough effect; inconclusive = small, poorly fitted or top-dose-only effect, or another doubt; inactive = no such curve, though single readings can be large; an effect the other way counts as inactive or inconclusive;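 note: plate controls were neutral wells for no effect and buffer without enzyme for full effect; nearly all actives have a fitted effect of over 40% in size; top concentration of the series not given in the record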
Target sequence (P25779 123-467 limits assumed): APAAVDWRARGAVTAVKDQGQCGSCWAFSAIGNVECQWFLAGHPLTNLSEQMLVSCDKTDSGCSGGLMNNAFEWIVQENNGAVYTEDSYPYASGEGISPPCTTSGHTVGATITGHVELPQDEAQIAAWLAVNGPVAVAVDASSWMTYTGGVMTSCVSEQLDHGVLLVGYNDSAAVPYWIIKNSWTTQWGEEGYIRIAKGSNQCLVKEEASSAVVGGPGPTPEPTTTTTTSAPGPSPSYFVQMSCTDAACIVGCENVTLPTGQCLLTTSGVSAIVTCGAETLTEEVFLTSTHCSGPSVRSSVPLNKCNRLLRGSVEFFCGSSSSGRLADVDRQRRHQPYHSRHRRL
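Detergent-containing run (0.01% Triton X-100) in acetate buffer pH 5.5 with 5 mM DTT: enzyme at 1.5 nM final, 15 min compound preincubation at room temperature, then 2 uM Z-FR-AMC substrate. Activity taken as 60 s fluorescence increase at 360/450 nm.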
LASV entry inh – blocks Lassa virus binding to or entry into cells; 300,000 tested, 1.2% active; Potency, µM (doses to about 37.9 µM), without a hit: at the highest dose activity change, negative = inhibition, usual class: inhibitors; AID 540256; Lassa virus pseudotype entry inhibition, cell reporter; control for the full effect not named in the record; active means well fitted inhibition curve with a large enough effect; inconclusive means small, poorly fitted or top-dose-only effect, or effect the other way; inactive means flat fitted curve, though single readings scatter; tested in HEK293 cells; note: % is set by controls: 0 for no effect and ±100 for the full control effect; nearly all actives have a fitted effect of over 50% in size; luciferase read-out
NS1 inh – inhibitors of influenza NS1 protein function; S. cerevisiae slowed by influenza A NS1, growth recovery by OD600; Potency, µM (series often up to 46.1 µM), for inactives: at the top dose activity, positive = more growth; 270,000 tested, 0.4% active; note: actives are rising curves; nearly all actives have a fitted effect of over 50% in size
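Read-out: OD600 growth recovery of NS1-expressing budding yeast. Cells grown overnight at 30C in -URA glucose medium, washed, resuspended and diluted 1:100 in 2% galactose assay medium, pH 6.0. Same strain lacking NS1 served as positive control.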
Cruzain inh noDet – inhibitors of Trypanosoma cruzi cruzain without detergent; 200,000 tested, 2.3% active; AID 1476; Potency, µM, for the others: max response, negative = inhibition, actives largely listed as inhibitors; purified cruzain, Z-FR-AMC fluorescence, no detergent; P25779; active = well fitted curve in the direction sought with a large enough effect; inconclusive = small, poorly fitted or top-dose-only effect, or another doubt; inactive = no such curve, though single readings can be large; an effect the other way counts as inactive or inconclusive;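 note: plate controls were enzyme without inhibitor for no effect and buffer without enzyme for full effect; nearly all actives have a fitted effect of over 40% in size; top concentration of the series not given in the record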
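Detergent-free condition (0.00005% Triton X-100) in acetate buffer pH 5.5 with DTT. 1.5 nM enzyme and compound were pre-mixed 15 min, then 2 uM Z-FR-AMC substrate added; reaction progress from fluorescence change between first and third reads (60 s).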
SARS PLpro yeast – blocks SARS-CoV papain-like protease in a yeast assay. S. cerevisiae expressing SARS-CoV PLpro, growth rescue; control for the full effect not named in the record. Potency, µM (top dose mostly 32.9 µM), for the others: at the highest dose activity, positive = growth rescue. 330,000 tested, 0.19% active; note: 0% is about no effect; nearly all actives have a fitted effect of over 55% in size; growth read by luminescence after 48 h
* = called active by the depositor; ? = inconclusive; . = no result given; & = joins results of further samples; [ ] = another dose, or the depositor's remark. Unless noted, calls come from the whole dose curve; as a rule, active means well fitted rising curve with a large enough effect; inconclusive means small, poorly fitted or top-dose-only effect; inactive means no such curve, though single readings can be large or run the other way. Potency is the fitted concentration of half-maximal effect. Not a hit list (roughly 4.8% active in at least one column).

SMILES	2A StopGo	MARV entry inh	RE007 growth inh	Cruzain Triton	LASV entry inh	NS1 inh	Cruzain inh noDet	SARS PLpro yeast
S=C(Nc1ccc(Br)cc1Cl)N1CCN(c2ccccn2)CC1	19.2%	9.5%	2.5%	.	1.5%	-12.9%	.	0.4%
O=C(Cc1ccccc1)NCc1ccccn1	-12.0%	.	?	.	.	3.4%	.	-0.1%
O=S(=O)(Cc1ccccc1)NCC1CCCN(Cc2ccc3nonc3c2)C1 (stereo not given)	8.8%	-1.9%[46.1 µM]	-0.9%	.	0.9%[46.1 µM]	-2.5%	.	-1.7%
CN1CCC(=C2c3ccccc3Sc3ccccc32)CC1	?	.	-4.8%	-14.1%&-7.2%	.	.	-9.8%&-8.9%	.
CCC(C)NS(=O)(=O)c1ccc(OCC(=O)N2CCCCC2)cc1 (stereo not given)	.	-3.5%	0.7%	3.8%	0.4%	3.5%	0.3%	15.3%
CCOC(=O)Cn1c(=O)oc2cc(S(=O)(=O)N3CCn4c3nc3ccccc34)ccc21	-14.8%	.	-7.6%	-2.4%	.	-55.3%	-0.6%	1.5%
Cn1nnnc1SCC(=O)NCc1ccco1	4.6%	?	13.6%	1.5%	-22.5%	3.6%	-11.2%	?
O=C(NCC1CCCN(C(=O)Cc2ccccc2Cl)C1)c1ccc(F)cc1 (stereo not given)	9.1%	.	11.6%	.	.	4.6%	.	-0.8%
COc1ccccc1NS(=O)(=O)c1ccc(Br)s1	37.5%[activator]	-3.0%	-0.4%	-8.3%	10.4%	-5.7%	-6.2%	2.7%
Cc1cc(C)c(N=Cc2c(O)[nH]c(=O)[nH]c2=O)c(C)c1	5.8%	4.1%[46.1 µM]	1.6%	.	?	-34.2%	.	-10.3%
O=C(CSc1ccc(-c2ccccc2)nn1)N1CCN(c2ccccc2)CC1	0.0%	23.6%	1.9%	-0.5%	-1.5%	-2.2%	-13.6%	6.5%
COc1cc(C(=O)NC2CCN(Cc3ccccc3)CC2)cc(Cl)c1OC	-9.3%	.	2.1%	.	.	-5.7%	.	-2.5%
COc1ccc(N2CCN(C(=O)c3ccccc3NC(=O)c3ccccc3)CC2)cc1	-3.4%	-22.5%	41.7%	.	-1.5%	20.0%	.	-1.5%
CCOc1ccc(NC(=O)CN(c2ccc(C)cc2)S(=O)(=O)c2c(C)nn(C)c2C)cc1	-8.5%	.	-5.8%	.	.	-3.6%	.	-0.5%
CN(CC(CC(=O)Nc1nncs1)c1ccccc1)S(=O)(=O)c1ccc(Br)cc1 (stereo not given)	-16.0%	.	14.2%	-7.5%	.	-2.6%	-18.2%	3.8%
Cc1cc(=O)oc2c(C)c(OC(C)C(=O)NC(Cc3c[nH]c4ccc(O)cc34)C(=O)O)ccc12 (stereo not given)	-10.0%	.	-9.3%	.	.	20.1%	.	-1.3%
COc1cccc(CNC(=O)CCS(=O)(=O)Cc2ccc(C)cc2)c1	-1.7%	22.0%[46.1 µM]	-1.1%	.	-0.2%[46.1 µM]	5.9%	.	3.2%
Cc1ccc(C)c(N(C)C(=O)c2cn(C)c(=O)c3ccccc23)c1	?	?	.	-0.7%	7.6%[46.1 µM]	.	7.3%	.
CC1CN(CCOCCOc2ccccc2-c2ccccc2)CC(C)O1 (stereo not given)	-8.0%	.	-1.2%	.	.	-13.8%	.	-3.6%
COc1ccccc1-n1cnc2cc(C(=O)N3CCOCC3)ccc21	38.3%[activator]	.	2.7%	.	.	16.9%	.	4.0%
CCOC(=O)C1(Cc2cccc(Cl)c2)CCCN(C(=O)c2cc(C)[nH]n2)C1 (stereo not given)	?	21.2%	-5.6%	.	-2.2%	15.8%	.	11.4%
Cn1c(SCC(=O)c2ccc3c(c2)OCCO3)nnc1C1CC1	31.5%[activator]	9.2%	17.3%	-13.6%	-1.3%	2.8%	-9.2%	-7.1%
Cc1nc2ccccc2c(=O)n1/N=C/c1ccc(F)cc1	53.5%[activator]	.	-5.2%	.	.	-4.0%	.	-3.0%
CSc1ncccc1C(=O)OCC(=O)N1CCN(S(=O)(=O)c2ccc(C)cc2C)CC1	-21.2%	-1.5%	9.6%	.	1.9%	.	.	-7.0%
CC(=O)Nc1ccc(/C=N/NC(=O)CNS(=O)(=O)c2ccccc2)cc1	-20.9%	1.9%[46.1 µM]	10.5%	.	?	.	.	1.2%
(list continues)
SMILES	2A StopGo	MARV entry inh	RE007 growth inh	Cruzain Triton	LASV entry inh	NS1 inh	Cruzain inh noDet	SARS PLpro yeast
CCN(CC(=O)Nc1c(F)cccc1F)C(=O)c1ccc(NC(=O)CC2SC(N3CCCC3)=NC2=O)cc1 (stereo not given)	-24.3%	-11.1%	18.3%	.	2.5%	.	.	3.9%
Cc1cc(C(=O)COC(=O)/C=C/c2ccc(F)cc2)c(C)n1C	-6.9%	1.2%	-0.3%	.	-3.4%	.	.	-6.1%
CCN1C(=O)/C(=C/C=C2\N(CC)c3cc(S(=O)(=O)N(C)C)ccc3N2c2ccccc2)SC1=S	-14.3%	.	-8.5%	.	.	2.7%	.	0.6%
CCc1ccc(NC(=O)Cn2ccn(-c3cccc(Cl)c3)c(=O)c2=O)cc1	-14.6%&8.2%	.	5.9%	-1.9%	10.3%[46.1 µM]	-2.5%	-2.4%	-8.3%
O=C(CCC(=O)c1cccs1)c1cccs1	-4.1%	?	0.3%	-1.0%	-23.9%	10.7%	-2.0%	-1.2%
Cc1ccc(C(c2sc3nc(C)nn3c2O)N2CCN(CCO)CC2)cc1 (stereo not given)	-26.6%	.	7.7%	.	.	8.9%	.	-2.0%
CC(=O)c1ccc(Cl)c(Cl)c1Cl	-2.7%	.	8.1%	0.7%	.	.	-3.5%	-1.9%
CC(C)c1nc(SCC(=O)N2CCCCCC2)c2c(=O)n(C)c(=O)n(C)c2n1	-8.2%	?	5.1%	.	?	3.8%	.	-1.3%
O=C(CSc1nnc(-c2ccc(C(F)(F)F)cn2)o1)Nc1cccc(Cl)c1	14.6%	?	10.5%	.	1.9%	2.3%	.	3.0%
O=C1NC(=O)C(=Cc2ccc(Sc3ccccc3)o2)C(=O)N1	22.4µM*	2.2%[46.1 µM]	-0.2%	.	10.0%	-14.5%	.	0.6%
Cc1c(C)n(CCCN(C)C)c2ncnc(Nc3ccc(F)cc3)c12	2.2%	.	-11.5%	.	.	-0.9%	.	0.8%
COc1ccccc1/C=C/c1nc(S(=O)(=O)c2ccccc2)c(N(C)C)o1	-14.1%	-19.1%[46.1 µM]	-0.8%	.	18.6%[46.1 µM]	-7.0%	.	0.8%
CCC1CCCCN1C(=O)CSc1nc2c([nH]c3ccccc32)c(=O)n1-c1ccc(OC)cc1 (stereo not given)	-0.6%	.	.	0.5%	-13.1%[46.1 µM]	.	-4.3%	.
CCOC(=O)c1c(C)[nH]c(C(=O)NCc2ccccn2)c1C	41.2%[activator]	?	-15.6%	.	?	.	.	-1.4%
CCC(Sc1ncccn1)C(=O)Nc1cc(C)on1 (stereo not given)	13.7%	13.3%[46.1 µM]	22.6%	-0.7%	-3.4%	-0.9%	-7.2%	-2.7%
Cc1ccccc1OCC(=O)Nc1ccc2c(c1)ncn2C	15.5%	-3.8%	-10.5%	.	4.3%	.	.	-4.7%
Cc1ccc2c(c1)N(CC(=O)Nc1c(C)cccc1C)C(=O)c1cccnc1O2	-17.7%	-0.4%[46.1 µM]	-5.9%	.	-19.0%[46.1 µM]	10.8%	.	-4.6%
COC(=O)c1ccccc1OC(=O)c1cc[n+]([O-])cc1	-20.1%	1.8%	-8.6%	.	19.4%	1.7%	.	-0.7%
CCn1c(SCc2ccc(C(=O)OC)o2)nnc1-c1c[nH]c2ccccc12	-7.9%	.	-0.3%	-1.0%	.	-10.0%	4.2%	0.0%
CCN1CCN(CC(=O)N2c3ccccc3CC2C)CC1 (stereo not given)	-11.1%	-29.3%	8.8%	4.5%	-3.5%	-2.4%	-17.8%	-2.5%
CC[C@@]12C(=O)N(c3ccc(OC)cc3)C(=O)N1[C@H](c1cccc(C)c1)[C@@H]1C(=O)N(Cc3ccccc3)C(=O)[C@@H]12	-20.8%	.	4.1%	.	.	1.4%	.	-3.0%
Cc1ccc(-c2csc(NC(=O)c3cnccn3)n2)cc1C	33.4%[activator]	?	13.7%	.	-0.4%	0.5%	.	0.0%
O=C(CSC1=NS(=O)(=O)c2cc(F)ccc2N1)NCc1ccc(F)cc1	24.2%	6.7%	12.8%	.	-0.4%[46.1 µM]	.	.	-0.1%
Nc1c(C(=O)N2CCOCC2)sc2nc3c(cc12)CCCC3	11.2µM*	?	23.7%	.	?	-11.2%	.	-15.0%
COc1ccc(CCNc2cc(N3CCN(C(=O)c4ccc(C)cc4)CC3)ccc2[N+](=O)[O-])cc1OC	.	-21.8%	.	-5.5%	8.4%	-0.1%	1.8%	0.4%
Next section:
SMILES	2A StopGo	MARV entry inh	RE007 growth inh	Cruzain Triton	LASV entry inh	NS1 inh	Cruzain inh noDet	SARS PLpro yeast
O=C(Cn1ncc2c(=O)oc3ccccc3c21)Nc1nc2ccccc2s1	.	.	.	-0.7%	.	9.6%	?	6.8%
CCOC(=O)C1C(=O)CC(C)(O)C(C(=O)OCC)C1c1ccc(OC)cc1 (stereo not given)	-18.9%	-12.1%[46.1 µM]	-7.0%	4.3%	21.1%	8.7%	-1.1%	.
CCn1c2ccccc2c2nnc(SCC(=O)Nc3ncccn3)nc21	-20.7%	-6.0%	-11.0%	-1.6%	-10.5%	-6.7%	-9.9%	1.1%
O=C(N1CCCCC1)N1CCN(S(=O)(=O)c2cccc([N+](=O)[O-])c2)CC1	-18.2%	.	-1.2%	.	.	0.3%	.	1.7%
C/C(=N\NC(=O)C1COc2ccccc2O1)c1cc2ccccc2o1 (stereo not given)	1.8%	-20.5%[46.1 µM]	8.7%	.	?	.	.	-8.1%
CCOC(=O)C1=C[C@]2(CC)CCCN3CCc4c(n1c1ccccc41)[C@@H]32	0.0%	?	-1.2%	0.4%&4.1%	?	4.4%&-13.9%	-9.2%&7.0%	0.9%
